High-throughput results as filed in PubChem.
LASV entry inh – inhibitors of Lassa virus binding or cell entry; Potency, µM (highest dose often 37.9 µM), without a hit: top-dose activity change, negative = inhibition, hits mostly inhibitors; AID 540256; actives 1.2% (n = 300,000); Lassa virus pseudotype entry inhibition, cell reporter; control for the full effect not named in the record; active means well fitted inhibition curve with a large enough effect; inconclusive means small, poorly fitted or top-dose-only effect, or effect the other way; inactive means flat fitted curve, though single readings scatter; tested in HEK293 cells; further: on the % scale 0 is the no-effect control and ±100 the full control effect; nearly all actives have a fitted effect of over 50% in size; luciferase read-out
Cruzain inh noDet – cruzain (T. cruzi) inhibition without detergent | Potency, µM, inactives show max response, negative = inhibition, most hits filed as inhibitors | purified cruzain, Z-FR-AMC fluorescence, no detergent | actives 2.3% (n = 200,000) | P25779; active means well fitted curve in the direction sought with a large enough effect; inconclusive means small, poorly fitted or top-dose-only effect, or another doubt; inactive means no such curve, though single readings can be large; an effect the other way counts as inactive or inconclusive;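 further: plate controls were enzyme without inhibitor for no effect and buffer without enzyme for full effect; nearly all actives have a fitted effect of over 40% in size; top concentration of the series not given in the record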
Target sequence (P25779 123-467 limits assumed): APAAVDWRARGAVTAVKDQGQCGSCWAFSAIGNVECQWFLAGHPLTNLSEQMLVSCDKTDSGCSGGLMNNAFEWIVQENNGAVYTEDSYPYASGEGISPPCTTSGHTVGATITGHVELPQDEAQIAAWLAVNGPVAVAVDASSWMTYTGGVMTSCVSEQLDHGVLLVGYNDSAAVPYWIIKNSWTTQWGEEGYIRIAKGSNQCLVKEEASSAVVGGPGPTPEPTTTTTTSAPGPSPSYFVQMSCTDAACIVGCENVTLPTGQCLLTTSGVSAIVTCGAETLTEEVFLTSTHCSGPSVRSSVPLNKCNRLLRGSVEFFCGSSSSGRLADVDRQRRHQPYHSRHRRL
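Purified cruzain at 1.5 nM, pre-incubated 15 min with compound at room temperature in 100 mM sodium acetate pH 5.5, 5 mM DTT, 0.00005% Triton X-100. Reaction started with 2 uM Z-FR-AMC; AMC fluorescence increase over 60 s gives rate.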
NS1 function inh – blocks influenza NS1 protein function; actives 0.4% (n = 270,000); AID 2326; S. cerevisiae slowed by influenza A NS1, growth recovery by OD600; Potency, µM (doses to about 46.1 µM), for the others: at the highest dose activity, positive = more growth; further: actives are rising curves; nearly all actives have a fitted effect of over 50% in size
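OD600 was taken as the measure of yeast growth restored by compound in an NS1-expressing S. cerevisiae strain. Cells had been washed out of glucose medium and diluted 1:100 into galactose -URA medium, pH 6.0.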
StopGo reporter – lowers the luciferase signal of an FMDV 2A StopGo reporter. human cells with a luciferase reporter of 2A StopGo recoding; control for the full effect not named in the record. Potency, µM (series often up to 57.9 µM), without a hit: at the top dose signal change, negative = less light. actives 1.2% (n = 410,000). AID 1159524; active = well fitted falling curve with a large enough effect; inconclusive = small, poorly fitted or top-dose-only effect; inactive = no such curve, though single readings can be large or run the other way; tested in HEK293T cells; further: on the % scale 0 is the no-effect control and ±100 the full control effect; nearly all actives have a fitted effect of over 45% in size; luciferase light after 4 h
Cruzain Triton – cruzain (T. cruzi) inhibition with detergent | P25779 | purified cruzain, Z-FR-AMC fluorescence, 0.01% Triton | Potency, µM, for inactives: max response, negative = inhibition, hits mostly inhibitors | actives 0.43% (n = 200,000) | AID 1478; active means well fitted curve in the direction sought with a large enough effect; inconclusive means small, poorly fitted or top-dose-only effect, or another doubt; inactive means no such curve, though single readings can be large; an effect the other way counts as inactive or inconclusive;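 further: plate controls were neutral wells for no effect and buffer without enzyme for full effect; nearly all actives have a fitted effect of over 40% in size; top concentration of the series not given in the record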
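Detergent-containing arm of a paired screen for aggregation-based inhibition: 0.01% Triton X-100 present. Cruzain at 1.5 nM cleaved 2 uM Z-FR-AMC at pH 5.5 with 5 mM DTT; AMC fluorescence gain over 60 s measured activity.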
SARS PLP yeast – inhibitors of SARS-CoV papain-like protease in yeast; S. cerevisiae expressing SARS-CoV PLpro, growth rescue; control for the full effect not named in the record; Potency, µM (top dose mostly 32.9 µM), without a hit: at the top dose activity, positive = growth rescue; actives 0.19% (n = 330,000); further: 0% is about no effect; nearly all actives have a fitted effect of over 55% in size; growth read by luminescence after 48 h
Marburg entry inh – inhibitors of Marburg virus binding or cell entry | Potency, µM (highest dose often 37.8 µM), inactives show at the top dose activity change, negative = inhibition, hits mostly inhibitors | Marburg virus pseudotyped entry inhibition, cell reporter; control for the full effect not named in the record; about a third of the inactives were read at about 46 µM | actives 1.8% (n = 300,000); active = well fitted inhibition curve with a large enough effect; inconclusive = small, poorly fitted or top-dose-only effect, or effect the other way; inactive = flat fitted curve, though single readings scatter; tested in HEK293 cells; about a fifth of its hits are not listed in these tables; further: on the % scale 0 is the no-effect control and ±100 the full control effect; luciferase read-out
RE007 growth inh – less growth of the S. pombe RE007 Vpr strain; S. pombe RE007 Vpr strain, BacTiter-Glo ATP luminescence, 24 h; control for the full effect not named in the record; Potency, µM (series often up to 92.2 µM), for inactives: top-dose activity change, negative = less growth; actives 0.21% (n = 360,000); AID 651644; active = well fitted falling curve with a large enough effect; inconclusive = small, poorly fitted or top-dose-only effect; inactive = no such curve, though single readings can be large or run the other way;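 further: on the % scale 0 is the no-effect control and ±100 the full control effect; nearly all actives have a fitted effect of over 50% in size; the assay follows cell death caused by Vpr and the record does not say whether a fall means rescue or toxicity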
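Fission yeast RE007 carrying one integrated HIV-1 vpr copy, seeded at OD 0.01 in PMG+AL medium with 23 nL pinned compound. Grown 24 h at 30 degrees; viability read by BacTiter-Glo luminescence after 5 min.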
* = called active by the depositor; ? = inconclusive; nt = not tested or not shown; & = joins results of further samples; [ ] = remark or other dose. Unless noted, the call rests on the fitted dose curve; in most records, active means well fitted rising curve with a large enough effect; inconclusive means small, poorly fitted or top-dose-only effect; inactive means no such curve, though single readings can be large or run the other way. Potency means the concentration at half of the fitted maximal effect.

SMILES | LASV entry inh | Cruzain inh noDet | NS1 function inh | StopGo reporter | Cruzain Triton | SARS PLP yeast | Marburg entry inh | RE007 growth inh
O=C(CCCn1nnnc1CN1CCOCC1)N1CCC(c2ccc(F)cc2)C1 (centres undefined) | ? | nt | -1% | 18% | nt | 5% | -5% | 53%
Cc1ccc(-n2nc(C(=O)N(C)c3ccc(C)c(C)c3)c3c4ccccc4n(C)c3c2=O)cc1 | ? | -18% | nt | -22% | -1.7% | nt | 1%[46.1 µM] | nt
CCC(c1nnnn1C(C)(C)CC)N(CCCO)Cc1cc2cccc(C)c2[nH]c1=O (centres undefined) | -2% | ? | -10% | -16% | -1.7% | 7% | -2% | -8%
CC1=C/C(=N\N=C2\NC(=O)C(CC(=O)Nc3ccccc3)S2)CC(C)(C)C1 (centres undefined) | nt | nt | 10% | -18% | nt | -1% | nt | -5%
CCc1ccccc1NC(=O)Nc1ccc(F)cc1F | -5%[46.1 µM] | nt | nt | -8% | nt | 0% | ? | 6%
Cc1cc(N2C(=O)C(O)=C(C(=O)c3ccco3)C2c2cccc(Oc3ccccc3)c2)no1 (centres undefined) | -17% | nt | 27% | -1% | nt | -2% | 5%[46.1 µM] | -9%
C=CCn1c(SCn2nnc3ccccc3c2=O)nnc1-c1ccc(F)cc1 | -12% | -1% | -3% | nt | -2.1% | 6% | -2% | 0%
Cc1cccc(CSc2[nH]c(=O)ncc2C)c1 | nt | nt | 7% | -3% | nt | 0% | nt | 0%
CCOc1ccc(C2C(C(=O)c3ccco3)=C(O)C(=O)N2Cc2cccnc2)cc1OC (centres undefined) | 6% | -7% | -15% | -3% | -3.0% | 0% | -11%&-11% | 15%
COc1cccc(NC(=O)CCNC(=O)c2ccccc2Cl)c1 | -25% | nt | nt | 30% | nt | 4% | ? | -12%
CC(C)C(=O)N1CCC2(CC1)Oc1ccc(F)cc1C(=O)C21CC(c2ccc(Cl)cc2)=NO1 (centres undefined) | nt | nt | 3% | ? | nt | -2% | nt | -10%
Cc1ccc(S(=O)(=O)Nc2ccc(NC(=O)c3ccc(F)cc3)cc2)cc1 | 0% | nt | nt | 13% | nt | 1% | -1% | 7%
Cc1ccc(Nc2nc3ccccc3c(=O)[nH]2)cc1C | ? | nt | nt | 25% | nt | 2% | ? | 13%
CC(C)Cn1c2c(c(O)c(C(=O)Nn3c(Cc4ccccc4)nc4ccccc4c3=O)c1=O)CCCC2 | 1%&-1% | ? | 26% | -14% | -8.2% | ? | 0%&1% | 16%
CCc1ccc(-c2cc(C)no2)cc1S(=O)(=O)N1CCN(c2ccc(OC)cc2)CC1 | ? | nt | 26% | -23% | nt | 0% | ? | -14%
CC(=O)Nc1ccc(/C=C/c2ccc3cccc([N+](=O)[O-])c3n2)cc1 | nt | nt | 7% | -14% | nt | -8% | nt | -6%
Fc1ccccc1N1CCN(Cc2cc(-c3ccccc3)on2)CC1 | -3%[46.1 µM] | nt | -32% | -3% | nt | -1% | -3%[46.1 µM] | 6%
CCOC(=O)C1=C(O)CSC1=Nc1cccc2ccccc12 | -1% | 3% | -29% | 0% | -1.4% | 4% | -3% | 13%
c1ccc(-c2nc(NCC3CCCO3)c3oc4ccccc4c3n2)cc1 (centres undefined) | 5% | ? | -54% | 1% | -6.3% | -14% | -7% | -4%
O=C(CO/N=C/c1ccc(Cl)cc1Cl)NNC(=O)c1cccc(Cl)c1 | 10% | nt | -1% | 20% | nt | 0% | 0%[14.2 µM] | 8%
CCOc1ccccc1/C=N/n1c(COc2ccccc2)n[nH]c1=S | nt | nt | 3% | -8% | nt | -5% | 0% | 7%
O=C(CSc1nc2ccccc2c(=O)n1CCCO)NCc1ccccc1 | ? | -1% | -1% | 4% | 0.5% | 8% | -2% | -7%
CC1Oc2ccccc2C=C1/C=N/NC(=O)c1ccccc1O (centres undefined) | -24% | -13% | -8% | -2% | -14% | -19% | -2% | 9%
CCN1CCN(C(c2cccc(OC)c2OC)c2nnnn2Cc2ccco2)CC1 (centres undefined) | 3% | nt | 4% | -8% | nt | -2% | 0%[46.1 µM] | -6%
COc1cc2c(cc1OC)CN(C(=O)CSc1nnc(C)s1)CC2 | 8% | 4% | 0% | -11% | 5.7% | 0% | 5% | 2%
COc1ccc(OCC(NS(=O)(=O)c2ccc(-n3cnnn3)cc2)C(C)C)cc1 (centres undefined) | nt | nt | -11% | -18% | nt | 3% | nt | -2%
CCOc1ccc(S(=O)(=O)NCCC(=O)NCc2ccncc2)cc1 | 27% | nt | nt | 1% | nt | -9% | 13% | -21%
O=C(Cn1c(=O)n(-c2ccc(F)cc2)c(=O)c2sc3ccccc3c21)NC1CCCC1 | 21%[46.1 µM] | -6% | nt | 5% | -1.2% | nt | -2%[46.1 µM] | nt
CCC1CCCCN1Cc1ccc(OC)c(OC)c1 (centres undefined) | 2% | -14% | 4% | -6% | 5.1% | -3% | ? | 1%
O=C(CSc1nncs1)NC(=O)NCc1ccccc1 | 2% | 1% | -5% | nt | -2.1% | 4% | 3% | -9%
CC1(C)Cc2ccccc2C2CC(O)C(=O)N21 (centres undefined) | 2% | -6% | -4% | nt | -2.1% | 7% | -2% | -3%
COc1cccc(N2CCN(c3ncc4c(n3)CCN(Cc3ccc(Br)cc3)C4)CC2)c1 | ? | -21% | nt | ? | -3.6% | nt | nt | nt
CCN(C(=O)CSc1ccc2ccccc2n1)C1CCS(=O)(=O)C1 (centres undefined) | 4% | nt | nt | -28% | nt | -1% | 0%[46.1 µM] | -3%
Cn1cnnc1Sc1ccc(C(=O)NCCC23CC4CC(CC(C4)C2)C3)cc1[N+](=O)[O-] | ? | ? | 15% | -18% | -8.5% | 14% | -11% | -15%
CCC(C)(C)NC(=O)C(c1ccc(F)cc1)N(Cc1cccs1)C(=O)c1cnccn1 (centres undefined) | -7% | nt | -2% | 3% | nt | -1% | 7%[46.1 µM] | -2%
Cc1ccccc1C1NC(=O)c2ccccc2O1 (centres undefined) | nt | nt | 7% | 25% | nt | -2% | nt | 2%
COC(=O)c1nnn(-c2nonc2N)c1CN1CCCC1 | -14%[46.1 µM] | nt | 3% | -9% | nt | -1% | 4%[46.1 µM] | 4%
O=C(O)c1ccc(N2CCN(C(c3ccccc3)c3ccccc3)CC2)c([N+](=O)[O-])c1 | ? | nt | -1% | ? | nt | -1% | -22% | 5%
CCN(CC)S(=O)(=O)c1ccc(O)c(C(=O)OCC(=O)N2c3ccccc3CC2C)c1 (centres undefined) | -32% | nt | 1% | -9% | nt | -1% | -1%[46.1 µM] | 9%
CC(C)(C)C(=O)NCCc1nc2ccccc2n1CC(=O)c1ccc(Cl)cc1 | -15% | 8% | 28% | -22% | -0.7% | -15% | ? | -6%
O=C(CN1CCN(C(=O)c2c(F)cccc2F)CC1)Nc1ccccc1C(F)(F)F | nt | nt | -37% | -15% | nt | -6% | nt | 37%
C=CCNC(=O)COC(=O)c1ccc(Cl)c(S(=O)(=O)N(Cc2ccccc2)c2ccccc2)c1 | -21% | ? | 20% | -23% | -5.7% | 1% | 13% | 22%
COc1ccc(C2c3ccc4ccccc4c3Oc3ncn(CCN(C)C)c(=N)c32)cc1 (centres undefined) | ? | nt | -10% | -18% | nt | -2% | 8.9µM* | 9%
Cc1ccc(C(=O)Nc2ccc(S(=O)(=O)N3CCN(C)CC3)cc2)o1 | ? | -21% | 10% | 2% | 12% | 8% | ? | 5%
CN(C(=O)Nc1cnc2ccccc2c1)c1ccccc1 | 0% | nt | -7% | 19% | nt | -1% | 6%[46.1 µM] | 6%
CCCc1nc2sc3c(c2c(=O)n1N)CCC3 | 6% | -2% | -4% | -8% | 3.2% | -4% | -3% | -18%
Cc1nn(Cc2ccccc2)c2c1C(c1ccncc1)C(C#N)=C(N)O2 (centres undefined) | 12% | 0% | -3% | -6% | 2.7% | 0% | ? | -11%
CCc1ccc(NC(=O)C2CCN(S(=O)(=O)c3ccc4[nH]c5c(c4c3)CCCCC5)CC2)cc1 | -17%[46.1 µM] | 10µM* | nt | -12% | 1.5% | nt | nt | nt

Shown in markdown: entries from further up
| Compound | LASV entry inh | Cruzain inh noDet | NS1 function inh | StopGo reporter | Cruzain Triton | SARS PLP yeast | Marburg entry inh | RE007 growth inh |
| --- | --- | --- | --- | --- | --- | --- | --- | --- |
| O=C(CN1CCN(C(=O)c2c(F)cccc2F)CC1)Nc1ccccc1C(F)(F)F | nt | nt | -37% | -15% | nt | -6% | nt | 37% |
| C=CCNC(=O)COC(=O)c1ccc(Cl)c(S(=O)(=O)N(Cc2ccccc2)c2ccccc2)c1 | -21% | ? | 20% | -23% | -5.7% | 1% | 13% | 22% |
| COc1ccc(C2c3ccc4ccccc4c3Oc3ncn(CCN(C)C)c(=N)c32)cc1 (centres undefined) | ? | nt | -10% | -18% | nt | -2% | 8.9µM* | 9% |
| Cc1ccc(C(=O)Nc2ccc(S(=O)(=O)N3CCN(C)CC3)cc2)o1 | ? | -21% | 10% | 2% | 12% | 8% | ? | 5% |
| CN(C(=O)Nc1cnc2ccccc2c1)c1ccccc1 | 0% | nt | -7% | 19% | nt | -1% | 6%[46.1 µM] | 6% |
| CCCc1nc2sc3c(c2c(=O)n1N)CCC3 | 6% | -2% | -4% | -8% | 3.2% | -4% | -3% | -18% |
| Cc1nn(Cc2ccccc2)c2c1C(c1ccncc1)C(C#N)=C(N)O2 (centres undefined) | 12% | 0% | -3% | -6% | 2.7% | 0% | ? | -11% |
| CCc1ccc(NC(=O)C2CCN(S(=O)(=O)c3ccc4[nH]c5c(c4c3)CCCCC5)CC2)cc1 | -17%[46.1 µM] | 10µM* | nt | -12% | 1.5% | nt | nt | nt |

Rows are unselected; 4.7% or so of the library scored in one or more.
